# SARS PLpro yeast – SARS-CoV PLP inhibition in yeast | S. cerevisiae expressing SARS-CoV PLpro, growth rescue; control for the full effect not named in the record | Potency, µM (top dose mostly 32.9 µM), inactives show top-dose activity, positive = growth rescue | 0.19% of 330,000 active; note: 0% is about no effect; nearly all actives have a fitted effect of over 55% in size; growth read by luminescence after 48 h
# Cruzain Triton – cruzain (T. cruzi) inhibition with detergent; P25779; purified cruzain, Z-FR-AMC fluorescence, 0.01% Triton; Potency, µM, inactives show max response, negative = inhibition, usual class: inhibitors; 0.43% of 200,000 active; active = well fitted curve in the direction sought with a large enough effect; inconclusive = small, poorly fitted or top-dose-only effect, or another doubt; inactive = no such curve, though single readings can be large; an effect the other way counts as inactive or inconclusive;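 note: plate controls were neutral wells for no effect and buffer without enzyme for full effect; nearly all actives have a fitted effect of over 40% in size; top concentration of the series not given in the record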
# Target sequence (P25779 123-467 limits assumed): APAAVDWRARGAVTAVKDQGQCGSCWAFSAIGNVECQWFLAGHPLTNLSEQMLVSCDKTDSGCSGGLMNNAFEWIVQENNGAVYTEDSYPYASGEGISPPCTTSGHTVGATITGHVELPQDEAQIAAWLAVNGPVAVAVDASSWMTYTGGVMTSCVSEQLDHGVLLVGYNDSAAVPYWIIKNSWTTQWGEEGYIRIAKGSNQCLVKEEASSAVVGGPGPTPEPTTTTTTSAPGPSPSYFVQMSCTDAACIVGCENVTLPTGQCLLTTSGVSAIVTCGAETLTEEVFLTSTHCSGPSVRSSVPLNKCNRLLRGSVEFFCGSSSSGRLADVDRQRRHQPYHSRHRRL
#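 Compounds were screened in titration against cruzain (1.5 nM) with 0.01% Triton X-100 to counter colloidal aggregation. Activity was the AMC fluorescence increase over 60 s after adding 2 uM Z-FR-AMC at pH 5.5.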
# Cruzain noTriton – cruzain (T. cruzi) inhibition without detergent; P25779; purified cruzain, Z-FR-AMC fluorescence, no detergent; Potency, µM, inactives show max response, negative = inhibition, actives largely listed as inhibitors; 2.3% of 200,000 active; AID 1476; active = well fitted curve in the direction sought with a large enough effect; inconclusive = small, poorly fitted or top-dose-only effect, or another doubt; inactive = no such curve, though single readings can be large; an effect the other way counts as inactive or inconclusive;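 note: plate controls were enzyme without inhibitor for no effect and buffer without enzyme for full effect; nearly all actives have a fitted effect of over 40% in size; top concentration of the series not given in the record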
#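 Purified cruzain at 1.5 nM, pre-incubated 15 min with compound at room temperature in 100 mM sodium acetate pH 5.5, 5 mM DTT, 0.00005% Triton X-100. Reaction started with 2 uM Z-FR-AMC; AMC fluorescence increase over 60 s gives rate.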
# MARV entry inh – Marburg virus entry inhibition; 1.8% of 300,000 active; Potency, µM (titrated, usually from 37.8 µM), inactives show at the top dose activity change, negative = inhibition, usual class: inhibitors; Marburg virus pseudotyped entry inhibition, cell reporter; control for the full effect not named in the record; about a third of the inactives were read at about 46 µM; AID 540276; active = well fitted inhibition curve with a large enough effect; inconclusive = small, poorly fitted or top-dose-only effect, or effect the other way; inactive = flat fitted curve, though single readings scatter; tested in HEK293 cells; about a fifth of its hits are not listed in these tables; note: % is set by controls: 0 for no effect and ±100 for the full control effect; luciferase read-out
# NS1 inh – blocks influenza NS1 protein function; S. cerevisiae slowed by influenza A NS1, growth recovery by OD600; Potency, µM (series often up to 46.1 µM), for the others: at the top dose activity, positive = more growth; 0.4% of 270,000 active; note: actives are rising curves; nearly all actives have a fitted effect of over 50% in size
#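 Compounds were scored for reversing the slow growth caused by influenza A NS1 in S. cerevisiae, measured by optical density at 600 nm. Assay medium contained 2% galactose at pH 6.0; NS1-free yeast of the same strain were the positive control.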
# LASV entry inh – Lassa virus entry inhibition | Lassa virus pseudotype entry inhibition, cell reporter; control for the full effect not named in the record | Potency, µM (titrated, usually from 37.9 µM), for inactives: at the top dose activity change, negative = inhibition, actives largely listed as inhibitors | 1.2% of 300,000 active | AID 540256; active means well fitted inhibition curve with a large enough effect; inconclusive means small, poorly fitted or top-dose-only effect, or effect the other way; inactive means flat fitted curve, though single readings scatter; tested in HEK293 cells; note: % is set by controls: 0 for no effect and ±100 for the full control effect; nearly all actives have a fitted effect of over 50% in size; luciferase read-out
# RE007 growth inh – less growth of the S. pombe RE007 Vpr strain. S. pombe RE007 Vpr strain, BacTiter-Glo ATP luminescence, 24 h; control for the full effect not named in the record. Potency, µM (doses to about 92.2 µM), inactives show at the highest dose activity change, negative = less growth. 0.21% of 360,000 active. AID 651644; active = well fitted falling curve with a large enough effect; inconclusive = small, poorly fitted or top-dose-only effect; inactive = no such curve, though single readings can be large or run the other way;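 note: % is set by controls: 0 for no effect and ±100 for the full control effect; nearly all actives have a fitted effect of over 50% in size; the assay follows cell death caused by Vpr and the record does not say whether a fall means rescue or toxicity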
#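 Fission yeast RE007 carrying one integrated HIV-1 vpr copy, seeded at OD 0.01 in PMG+AL medium with 23 nL pinned compound. Grown 24 h at 30 degrees; viability read by BacTiter-Glo luminescence after 5 min.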
# 2A StopGo – lowers the luciferase signal of an FMDV 2A StopGo reporter. human cells with a luciferase reporter of 2A StopGo recoding; control for the full effect not named in the record. Potency, µM (series often up to 57.9 µM), for the others: at the top dose signal change, negative = less light. 1.2% of 410,000 active; active = well fitted falling curve with a large enough effect; inconclusive = small, poorly fitted or top-dose-only effect; inactive = no such curve, though single readings can be large or run the other way; tested in HEK293T cells; note: % is set by controls: 0 for no effect and ±100 for the full control effect; nearly all actives have a fitted effect of over 45% in size; luciferase light after 4 h
# An asterisk follows results filed as active; ? = inconclusive; . = not tested or not shown; [ ] = remark or other dose. Unless noted, calls come from the whole dose curve; as a rule, active means well fitted rising curve with a large enough effect; inconclusive means small, poorly fitted or top-dose-only effect; inactive means no such curve, though single readings can be large or run the other way. Potency is the fitted concentration of half-maximal effect.
SMILES,SARS PLpro yeast,Cruzain Triton,Cruzain noTriton,MARV entry inh,NS1 inh,LASV entry inh,RE007 growth inh,2A StopGo
COc1ccc(CC(=O)NCc2nnc(SCC(=O)Nc3cccc(F)c3)n2C)cc1,0.7%,.,.,26.1%,0.4%,10.4%,16.3%,9.1%
CCCCN(C(=O)c1ccc(S(=O)(=O)N(C)C)cc1)c1ccccc1,-9.7%,.,.,.,3.9%,.,3.8%,-26.5%
Cc1ccc(CN2CCN(CC(=O)O)C2=O)cc1,-1.3%,.,.,2.3%[46.1 µM],.,-3.4%,14.4%,-11.8%
C=CCN(CC(=O)NC1CCCC1)C(=O)C(=O)Nc1ccc2c(c1)OCCO2,-10.6%,.,.,0.5%,6.3%,-3.0%,0.4%,-1.3%
Cc1ccc(NC(c2ccc(Cl)cc2)c2nnc(-c3cccc(F)c3)o2)cc1C (stereo not given),.,-1.0%,5.8%,3.2%[46.1 µM],.,21.8%[46.1 µM],.,-0.3%
C[C@@H]1CC[C@@]2(NC1)O[C@H]1C[C@H]3[C@@H]4CC=C5C[C@@H](O)CC[C@]5(C)[C@H]4CC[C@]3(C)[C@H]1[C@@H]2C,-6.7%,.,.,8.2%[46.1 µM],4.2%,15.9%,0.8%,-8.0%
C=CCn1c(C)cc(-c2csc(NC(=O)C3=COCCO3)n2)c1C,-1.6%,.,.,5.5%,.,0.4%[46.1 µM],-15.3%,9.6%
O=C(/C=C/c1ccco1)c1ccc(NC(=O)C23CC4CC(CC(C4)C2)C3)cc1,-16.2%,-21.9%,-11.8%,?,?,-4.0%,-13.3%,-27.9%
Cc1ccc2c(c1)c1ncn(Cc3ccc(F)cc3)c(=O)c1n2C,0.6%,.,.,.,1.5%,.,10.8%,-26.8%
COc1ccc(NC(=O)C(C)Oc2ccc(/C(C)=N\O)cc2)cc1 (stereo not given),2.4%,-0.8%,-5.8%,6.0%,-8.1%,-1.6%,5.3%,?
CCN(CC(=O)Nc1ccc2c(c1)OCCO2)C(=O)/C=C/c1ccc(OC)cc1OC,1.2%,.,.,13.3%,-35.1%,-11.8%,-10.4%,10.6%
CCOC(=O)c1c(C)n(S(=O)(=O)c2ccc(C)cc2)c2ccc(O)c(C(=O)O)c12,7.2%,.,.,20.0%[46.1 µM],?,8.7%[46.1 µM],-3.4%,-12.6%
N#CC(C(=S)Nc1ccccc1)c1nc2ccccc2[nH]1 (stereo not given),-1.7%,.,.,.,6.2%,.,-9.7%,-9.3%
CCOC(=O)c1c(C)[nH]c(C(=O)Nc2ccc3c(c2)OCO3)c1C,-14.2%,-4.8%,-9.2%,.,-17.6%,.,.,.
COc1ccc(CC(=O)NC(C)c2nnc(SCC(=O)c3ccc(OC)cc3)n2C)cc1 (stereo not given),0.7%,.,.,-8.5%[46.1 µM],-2.0%,3.2%,-16.1%,-9.6%
COCCNC(=O)c1cnc2sc(N3CCC(C)CC3)nn2c1=O,.,-9.3%,-6.6%,.,.,-0.7%[46.1 µM],.,-26.7%
Cc1ccc(C(=O)NC2CCCCC2)cc1,-2.6%,2.5%,-13.0%,-0.1%,2.8%,3.9%,11.3%,.
CCN1CCN(c2ncnc3c2oc2nc(C(C)C)c4c(c23)CCC4)CC1,-0.9%,-1.1%,1.0%,0.2%,-1.6%,.,.,.
N#Cc1cn(Cc2ccccc2)c2ccccc12,-12.0%,-4.9%,-13.9%,-11.0%[46.1 µM],-37.0%,5.1%,-20.8%,0.5%
COc1ccc(CCNCC(O)COc2ccc(Cl)cc2)cc1OC (stereo not given),0.3%,.,.,.,0.9%,.,13.3%,-25.4%
Cc1ccc2c(CC(=O)NCC3COc4ccccc4O3)coc2c1 (stereo not given),-10.1%,-7.4%,1.1%,?,-32.5%,-9.2%,-15.0%,-2.9%
CCOC(=O)C1CCCN(C(=O)c2cc(S(=O)(=O)N3CCCCC3)c[nH]2)C1 (stereo not given),4.8%,.,.,.,1.7%,.,-9.3%,-5.0%
COCC(=O)Nc1nc2n(n1)C(c1ccccc1Cl)CC(c1ccc(OC)cc1)N2 (stereo not given),-0.5%,-13.6%,11.1%,-5.0%,-15.2%,-4.5%,12.5%,-15.2%
O=C(CSc1nnc(-c2ccc(F)cc2)c2ccccc12)Nc1c(F)cccc1F,-5.0%,-6.9%,15.8µM*,-20.0%,26.6%,?,0.3%,-10.3%
S=c1[nH]nc(COc2ccc3c(c2)OCO3)n1-c1ccccc1,-9.8%,-4.2%,-4.1%,4.0%,-8.1%,20.7%,2.1%,-24.0%
COc1cccc(NC(=O)CSc2ccc3nnc(CCNC(=O)c4ccccc4)n3n2)c1,-0.1%,.,.,.,-9.1%,.,-5.6%,4.6%
COc1ccc(-c2csc3nc(-c4ccc(F)cc4)oc(=O)c23)cc1OC,.,-2.6%,13.9%,-0.6%[46.1 µM],.,17.2%[46.1 µM],.,-9.8%
COc1ccc(NS(=O)(=O)c2c(F)cc(F)c(Cl)c2F)cc1S(=O)(=O)N1CCCCC1,0.7%,-4.8%,6.6%,4.4%,-1.6%,19.8%,-0.2%,15.9%
CCCOc1ccc(C(=O)Nc2nonc2-c2ccc(OCC)cc2)cc1,.,1.5%,2.1%,-0.1%[46.1 µM],.,26.3%[46.1 µM],.,5.6%
COc1ccc(-c2nsc3c(SCC(=O)Nc4cc(C)ccc4C)ncnc23)cc1,5.4%,6.1%,?,-3.7%,-0.9%,.,.,.
CCN1CCc2c(sc(NC(=S)NC(=O)c3ccc(Cl)cc3)c2C(N)=O)C1,0.9%,.,.,1.7%[14.2 µM],3.7%,15.2%,-29.8%,3.1%
O=C(c1cc(COc2ccc(F)cc2Cl)on1)N1CCN(C2CCCC2)CC1,-2.2%,.,.,-21.8%[46.1 µM],-2.0%,-3.1%[46.1 µM],1.9%,-19.6%
Cc1ccc(OCCC(=O)NNC(=O)c2cc(C)oc2C)cc1,1.6%,.,.,?,.,-5.7%[46.1 µM],6.0%,-12.1%
CC(=O)c1ccc(Nc2cc(C)nc3nc(Cc4ccc(Cl)cc4)nn23)cc1,.,-1.6%,28.7%,-8.4%[46.1 µM],.,8.5%[46.1 µM],.,?
CN(C)S(=O)(=O)N1CCc2ccc(NC(=O)c3ccccc3Cl)cc2C1,3.5%,.,.,20.7%[46.1 µM],-11.8%,-4.0%[46.1 µM],12.6%,7.2%
O=C(CSc1nc2ccccc2o1)Nc1ccccc1N1CCCCCC1,-18.4%,-14.3%,2.9%,?,-47.7%,1.5%,-4.8%,?
O=C(Nc1ccc(F)cc1F)N1CCc2c(sc3c2CCCC3)C1c1ccc(F)cc1 (stereo not given),.,-1.0%,0.8%,.,.,-27.2%[46.1 µM],.,?
N#Cc1ccc(/C=N/N=C(N)N)cc1,10.2%,-1.7%,-4.4%,8.4%,3.9%,19.0%,0.5%,7.7%
CNC(=O)Cc1csc2ccc(Cl)cc12,-5.9%,-0.7%,-1.1%,6.5%[46.1 µM],9.9%,12.3%,-5.4%,-5.7%
O=C(/C=C/c1ccccc1)n1cnnc1SC/C=C/c1ccccc1,-24.6%,-11.1%,0.0%,-25.4%,1.0%,-14.7%,2.4%,23.3%
Nn1c(SCC(=O)Nc2cccnc2Cl)nnc1-c1ccccc1,-1.6%,.,.,16.1%,.,26.5%,-9.1%,13.1%
CC1(C)CC(=O)c2cc(OCC(=O)O)ccc2O1,-5.4%,-4.5%,5.6%,1.4%,6.6%,-5.7%,12.5%,8.3%
CCOc1ccccc1NC(=O)c1cc(S(=O)(=O)N2CCOCC2)ccc1C,1.5%,.,.,10.8%,-6.5%,3.1%,14.9%,-25.8%
Oc1cccc(/C=N/N2CCCCC2)c1O,0.0%,.,.,.,-2.5%,.,-19.0%,65.9%[activator]
CCOC(=O)COc1cccc2c(=O)n(CC(=O)NCc3ccc4c(c3)OCO4)ccc12,0.7%,-4.7%,-1.1%,.,0.0%,.,4.1%,-11.2%
O=C(Nc1nnc(C2CC2)s1)C1Cc2ccccc2CN1S(=O)(=O)c1ccccc1F (stereo not given),1.5%,2.5%,-9.3%,7.4%,18.6%,-38.6%,2.3%,.
COc1ccc(OC)c(S(=O)(=O)CC(O)COc2ccccc2Cl)c1 (stereo not given),3.1%,.,.,.,-17.7%,.,5.3%,8.7%
CCOc1ccc(NC(=O)CSc2ccc3nnc(-c4ccccn4)n3n2)cc1,-2.4%,.,.,.,10.1%,.,-6.0%,2.1%
Cc1ccc(Nc2ccc3nonc3c2[N+](=O)[O-])cc1,0.2%,.,.,19.0%,.,-0.6%,-10.3%,-10.9%
Cc1ccc(-n2nnnc2SCC(=O)NNC(=O)c2ccco2)cc1C,?,-1.0%,-5.1%,8.1%,-5.5%,2.9%,-3.4%,-5.0%
O=C1CC(c2nc3ccccc3n2CCCOc2ccccc2)CN1c1ccc(F)cc1 (stereo not given),.,-7.7%,1.2%,1.5%[46.1 µM],.,-27.2%[46.1 µM],.,?
CCOC(=O)c1c(NC(=O)C(=O)N/N=C/c2ccccc2OC)sc2c1CCCCC2,11.4%,-10.1%,10µM*,?,-2.5%,1.6%,-13.3%,-8.8%
COC(=O)c1c(-c2ccccc2)csc1NC1=NS(=O)(=O)c2ccccc21,31.5%,-7.9%,?,?,19.0%,?,0.7%,25.6%
O=C(COC(=O)c1ccc(O)cc1)Nc1ccc(Cl)cc1C(=O)c1ccccc1,.,-10.9%,-12.4%,-1.7%[46.1 µM],-29.3%,-9.5%,9.4%,?
COc1ccccc1OCCCCN1CCN(c2ccccc2OC)CC1,?,10.0%,2.5%,-17.5%,5.6%,8.3%,1.8%,-18.8%
C=CCN(CC=C)C(=S)NC(=O)c1ccc(OC)cc1,0.4%,.,.,-18.8%[46.1 µM],-3.7%,-3.4%,-19.5%,4.7%
Cc1cc(C(=O)Nc2c(C)nn(Cc3c(Cl)cccc3Cl)c2C)no1,-0.7%,1.3%,-5.9%,2.59µM*,6.6%,5.8µM*,-2.8%,-10.4%

# Bioassay records as filed in PubChem BioAssay.
